Vaccinia inh – blocks a specific stage of Vaccinia orthopoxvirus infection, primary screen, cell-based, single point. Vaccinia-infected cells, mCherry/Venus stage reporter fluorescence; active compounds read low; some inactives read as strong as hits. activity change (mCherry), % (no concentration beside the values). actives 0.01% (n = 89,000). AID 1053133, 2014;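 active = mCherry past -33% and 40 or more points under the early reporter, replicates agreeing; inconclusive = past -33% without that gap or agreement; tested in A549 cells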;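 also: scaled between vehicle wells and reference inhibitor wells; 23 nL library stock went into each well; one replicate is shown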
Vaccinia inh Venus – recorded beside Vaccinia inh, whose call it bears; activity change (Venus), %; measured here: Venus reporter, other viral stage;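 negative = less Venus signal; first of two replicates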
Starred values were filed as active, the others as inactive; ? = inconclusive; . = not tested or not shown. These rows are one share of the data (hit frequency here may not be typical).

SMILES | Vaccinia inh | Vaccinia inh Venus
O=C(Nc1ccc2c(c1)[C@@H]1C[C@@H](CC(=O)N3CCc4ccccc4C3)O[C@@H](CO)[C@@H]1O2)c1cccnc1 | -8.2 | 2.9
C[C@H](CO)N1C[C@H](C)[C@H](CN(C)S(=O)(=O)c2ccc(F)cc2)Oc2ccc(NC(=O)Nc3ccc(F)cc3)cc2C1=O | -18.0 | -15.1
O=C(Nc1ccccc1)N1CCCCN2[C@@H](CO)[C@H](c3ccc(C#Cc4cccnc4)cc3)[C@@H]2C1 | -21.9 | -14.2
C[C@H](CO)N1C[C@H](C)[C@H](CN(C)S(=O)(=O)c2ccccc2)Oc2ccc(NS(=O)(=O)c3cccs3)cc2C1=O | 2.4 | -0.7
C[C@@H]1CCCCO[C@H](CN(C)C(=O)Nc2ccc3c(c2)OCO3)[C@@H](C)CN([C@@H](C)CO)C(=O)c2cc(NC(=O)CCC(F)(F)F)ccc2O1 | -12.9 | -0.9
C[C@@H]1CCCCO[C@@H](CN(C)S(=O)(=O)c2ccccc2)[C@H](C)CN([C@H](C)CO)C(=O)c2cc(NC(=O)Nc3ccc(F)cc3)ccc2O1 | 3.2 | 5.3
COc1ccc(-c2cccc(-c3nc(C(=O)O)cc4c3[C@@H](CCO)N([S@](=O)C(C)(C)C)C4)c2)cc1 | 15.8 | 10.5
C[C@H]1CN([C@@H](C)CO)C(=O)c2cc(-c3ccc(F)cc3)cnc2O[C@@H]1CN(C)C(=O)c1ccccc1F | -2.8 | -10.8
COc1ccc(NC(=O)N(C)C[C@H]2Oc3ccc(NS(=O)(=O)c4ccccc4)cc3C(=O)N([C@H](C)CO)C[C@@H]2C)cc1 | 18.2 | 10.3
C[C@H](NC(=O)C[C@@H]1CC[C@@H]2[C@H](COC[C@H](O)CN2C(=O)Nc2ccccc2)O1)c1ccccc1 | -0.7 | 2.4
COc1cccc(S(=O)(=O)N2C[C@@H](O)COC[C@@H]3O[C@@H](CC(=O)N4CCCCC4)CC[C@H]32)c1 | 0.1 | 1.3
Cn1cnc(S(=O)(=O)N2C[C@H](O)COC[C@@H]3O[C@H](CC(=O)N4CCN(c5ccccc5)CC4)CC[C@H]32)c1 | 14.4 | 11.1
C[C@H]1CN([C@@H](C)CO)C(=O)Cc2cc(NC(=O)CCCCCC(=O)Nc3ccccc3N)ccc2O[C@H]1CN(C)S(=O)(=O)c1cn(C)cn1 | 7.2 | -2.8
C[C@@H]1CN([C@@H](C)CO)C(=O)CCCn2cc(nn2)CO[C@H]1CN(C)C(=O)Oc1cccc2ccccc12 | ? | .
C[C@@H]1CN([C@@H](C)CO)C(=O)c2cc(NC(=O)c3ccncc3)ccc2O[C@H]1CN(C)C(=O)Nc1cccc2ccccc12 | -0.1 | 7.4
COc1ccc(S(=O)(=O)N(C)C[C@H]2Oc3ccc(NC(=O)Cc4ccccc4)cc3C(=O)N([C@H](C)CO)C[C@H]2C)cc1 | -6.8 | -1.2
CC(C)NC(=O)Nc1ccc2c(c1)C(=O)N([C@@H](C)CO)C[C@H](C)[C@@H](CN(C)Cc1ccc(C(=O)O)cc1)O2 | 3.5 | 2.6
CC(C)NC(=O)N1CCCCN2[C@@H](CO)[C@H](c3ccc(C#CC4CC4)cc3)[C@@H]2C1 | -7.3 | -10.4
C/C=C/c1ccc2c(c1)O[C@H](CN(C)C(=O)Nc1ccccc1)[C@@H](C)CN([C@@H](C)CO)S2(=O)=O | -16.9 | -12.0
COc1ccc2c3c(n(C)c2c1)[C@@H](CO)N(C(=O)c1ccccc1)CC31CCN(CC2CC2)CC1 | -2.8 | -4.8
CN(C)C(=O)[C@H]1[C@H](CO)[C@H]2Cn3c(ccc(-c4ccccc4)c3=O)[C@@H]1N2CC1CCCC1 | -14.7 | -9.7
COc1ccc(S(=O)(=O)N(C)C[C@@H]2Oc3ccc(NC(=O)Nc4ccccc4)cc3C(=O)N([C@@H](C)CO)C[C@@H]2C)cc1 | -0.5 | 3.8
COc1ccc(NC(=O)Nc2ccc3c(c2)C(=O)N([C@@H](C)CO)C[C@H](C)[C@@H](CN(C)Cc2ccccc2)OCCCC[C@H](C)O3)cc1 | ? | .
C[C@@H]1CCCCO[C@H](CN(C)C(=O)c2ccccc2)[C@@H](C)CN([C@H](C)CO)C(=O)c2cc(NC(=O)CCC(F)(F)F)ccc2O1 | 5.2 | -7.9
O=C(CN1CCOCC1)NCC[C@@H]1CC[C@@H](NC(=O)c2ccc3c(c2)OCO3)[C@@H](CO)O1 | 1.0 | 0.4
CCC(=O)Nc1ccc2c(c1)C(=O)N(C)C[C@H](OC)[C@H](C)CN(CCC(F)(F)F)[C@H](C)CO2 | 13.3 | 1.9
O=S(=O)(c1ccccc1)N1C[C@@H]2[C@H](c3ccccc31)[C@@H](CO)N2Cc1ccc(F)cc1 | 2.8 | 3.2
CNC[C@@H]1Oc2ccc(NS(=O)(=O)c3cccs3)cc2C(=O)N([C@@H](C)CO)C[C@@H]1C | 6.6 | -2.0
Cc1noc(C)c1NC(=O)N(C)C[C@@H]1OCCCC[C@@H](C)Oc2ccc(NC(=O)c3ccccc3)cc2C(=O)N([C@@H](C)CO)C[C@H]1C | 15.9 | -0.3
Cc1noc(C)c1S(=O)(=O)Nc1ccc2c(c1)C(=O)N([C@@H](C)CO)C[C@H](C)[C@H](CN(C)Cc1ccc(C(=O)Nc3ccccc3N)cc1)O2 | 9.1 | 5.2
C[C@@H]1CCCCO[C@H](CN(C)Cc2ccc(C(=O)O)cc2)[C@H](C)CN([C@@H](C)CO)C(=O)c2cc(NC(=O)Cc3ccccc3)ccc2O1 | 16.5 | 6.7
C[C@H](CO)N1C[C@H](C)[C@@H](CN(C)Cc2ccccc2)Oc2c(NC(=O)Nc3ccccc3)cccc2C1=O | -14.4 | -2.2
CC(C)NC(=O)Nc1ccc2c(c1)C(=O)N([C@H](C)CO)C[C@H](C)[C@@H](CN(C)Cc1ccc(Oc3ccccc3)cc1)O2 | -9.9 | -10.8
C[C@H](CO)N1C[C@H](C)[C@H](CN(C)S(=O)(=O)c2ccccc2)OCc2ccccc2-c2c(n(C)c3ccccc23)C1=O | 0.9 | 6.2
COCc1cn(CC[C@@H]2CC[C@@H](NC(=O)Nc3ccc(F)cc3)[C@@H](CO)O2)nn1 | 0.6 | 12.2
C[C@H]1CN([C@@H](C)CO)S(=O)(=O)c2ccc(-c3ccccc3)cc2O[C@H]1CN(C)Cc1cncnc1 | -14.7 | -26.2
COc1ccc(CN(C)C[C@@H]2OCCCC[C@H](C)Oc3ccc(NC(=O)Nc4ccc(F)cc4)cc3C(=O)N([C@H](C)CO)C[C@H]2C)cc1 | ? | .
CCCC#Cc1cnc2c(c1)C(=O)N([C@H](C)CO)C[C@@H](C)[C@@H](CN(C)S(=O)(=O)c1ccccc1)O2 | -4.7 | -4.5
CN1C(=O)c2cc(NS(=O)(=O)c3ccc(F)cc3)ccc2OC[C@H]2O[C@@H](CC(=O)NCC(F)(F)F)CC[C@H]21 | 13.9 | 5.9
O=C(C1CCCC1)N1CCCCN2[C@H](C1)[C@@H](c1ccc(C#CC3(O)CCCC3)cc1)[C@@H]2CO | -24.3 | -17.0
CO[C@H]1CN(C)C(=O)c2cc(NS(=O)(=O)CC(F)(F)F)ccc2OC[C@@H](C)NC[C@@H]1C | 10.6 | 12.6
CCN1[C@@H]2Cn3c(ccc(-c4ccccc4)c3=O)[C@H]1[C@@H](C(=O)NCCCN1CCOCC1)[C@@H]2CO | 4.3 | -1.8
C[C@@H]1CN([C@H](C)CO)C(=O)c2ccccc2-c2ccccc2CO[C@H]1CN(C)C(=O)Oc1ccccc1 | -0.1 | -3.5
C[C@H]1CN([C@@H](C)CO)C(=O)CCCn2cc(nn2)CO[C@@H]1CN(C)C(=O)Nc1cccc(F)c1 | 31.4 | 4.3
CO[C@H]1CN(C)C(=O)c2ccc(NS(C)(=O)=O)cc2OC[C@H](C)N(CC2CCOCC2)C[C@@H]1C | 15.9 | 13.8
CCC(=O)Nc1ccc2c(c1)C(=O)N(C)[C@H]1CC[C@@H](CC(=O)NCC3CC3)O[C@@H]1CO2 | 22.9 | 18.6
C[C@@H]1CN([C@@H](C)CO)C(=O)c2cc(/C=C/c3ccccc3)cnc2O[C@@H]1CN(C)C(=O)C1CCCCC1 | -17.9 | -18.1
COc1cccc(CNC(=O)C[C@H]2CC[C@H](NC(=O)C3CCC3)[C@H](CO)O2)c1 | 5.0 | 4.0
C[C@@H]1CCCCO[C@@H](CN(C)S(=O)(=O)c2cn(C)cn2)[C@H](C)CN([C@H](C)CO)C(=O)c2cc(NC(=O)c3ccccc3)ccc2O1 | 19.0 | 8.3
COc1ccc2c3c(n(C)c2c1)[C@H](CO)N(C(=O)C1CC1)CC31CN(C(=O)C2CCOCC2)C1 | 5.5 | 1.1
C[C@@H]1CN([C@H](C)CO)C(=O)Cc2cc(NC(=O)Nc3ccc(F)cc3)ccc2O[C@@H]1CN(C)S(=O)(=O)c1ccc(Cl)cc1 | ? | .
C[C@H](CO)N1C[C@H](C)[C@H](CN(C)C(=O)c2cccnc2)Oc2cc(C#CC3CC3)ccc2S1(=O)=O | 17.1 | 6.8
CCN1[C@@H]2Cn3c(ccc(-c4ccccc4F)c3=O)[C@H]1[C@@H](C(=O)NCc1ccc(F)cc1)[C@@H]2CO | -10.7 | -6.6
CNC(=O)C[C@H]1CC[C@@H]2[C@@H](COc3ccc(NC(=O)Nc4ccc(C)cc4)cc3C(=O)N2C)O1 | 1.5 | 6.9
Cc1cccc(-c2ccc([C@H]3[C@@H](CO)N4C(=O)CN(C(=O)c5cccnc5)C[C@H]34)cc2)c1 | -0.3 | -0.8
COCc1cn(CC[C@H]2CC[C@@H](NC(=O)Nc3c(C)noc3C)[C@@H](CO)O2)nn1 | 5.6 | 9.4
CCC(=O)N(C)C[C@H]1Oc2ncc(-c3ccccc3OC)cc2C(=O)N([C@@H](C)CO)C[C@@H]1C | 15.3 | 0.8
COc1ccc(NC(=O)N2CCCCN3[C@@H](CO)[C@@H](c4ccc(-c5ccccc5C)cc4)[C@@H]3C2)cc1 | ? | .
C[C@@H]1CN([C@H](C)CO)C(=O)Cc2cc(NC(=O)NC3CCCCC3)ccc2O[C@@H]1CN(C)Cc1ccccc1 | -31.3 | -19.7
C[C@H]1CN([C@@H](C)CO)C(=O)c2cccc(NC(=O)c3nc4ccccc4s3)c2O[C@H]1CN(C)Cc1ccc(Cl)c(Cl)c1 | 9.2 | -2.8
Additional entries follow:
SMILES | Vaccinia inh | Vaccinia inh Venus
C[C@@H]1CCCCO[C@@H](CN(C)C)[C@H](C)CN([C@H](C)CO)C(=O)c2cc(NC(=O)c3ccncc3)ccc2O1 | 10.9 | 14.3
O=S(=O)(NC[C@H]1CC[C@@H]2NC[C@@H]2O1)c1ccccc1F | 12.3 | 8.2
Cc1ccc(S(=O)(=O)Nc2ccc3c(c2)C(=O)N([C@@H](C)CO)C[C@@H](C)[C@@H](CN(C)S(=O)(=O)c2ccc(C)cc2)O3)cc1 | -29.9 | -11.2
C[C@@H]1CN([C@H](C)CO)C(=O)c2cc(NC(=O)C3CC3)ccc2O[C@H]1CN(C)Cc1ccncc1 | 3.7 | 4.6
Cc1ccccc1-c1cnc2c(c1)C(=O)N([C@@H](C)CO)C[C@H](C)[C@@H](CN(C)CC1CCCCC1)O2 | -17.6 | -11.9
CCN(C[C@@H]1N[C@@H](CO)[C@H]1c1ccc(-c2cccc(F)c2)cc1)C(=O)COC | -8.8 | 2.8
COc1ccc(S(=O)(=O)N[C@@H]2C=C[C@H](CC(=O)NCCc3ccccc3)O[C@@H]2CO)cc1 | 3.9 | 11.0
COc1cccc(-c2ccc3c(c2)[C@@H]2[C@@H](CCN2S(=O)(=O)c2ccccc2C)[C@@H](CO)N3)c1 | -27.9 | -19.6
CO[C@H]1CC[C@@H]2CCOc3ccc(C#N)cc3C(=O)N(C)C[C@@H](C)C(=O)N(C)C[C@@H]1O2 | 10.6 | 5.6
C[C@@H]1CN([C@H](C)CO)C(=O)c2cc(C#Cc3ccccn3)cnc2O[C@H]1CN(C)C(=O)CCN1CCCCC1 | 2.7 | 5.4
COc1ccc(NC(=O)N(C)C[C@H]2Oc3ccc(NC(=O)Nc4ccc(C(F)(F)F)cc4)cc3CC(=O)N([C@@H](C)CO)C[C@H]2C)cc1 | -16.4 | -10.5

Some of the entries so far, as tab-separated lines:
Compound	Vaccinia inh	Vaccinia inh Venus
C[C@@H]1CCCCO[C@@H](CN(C)C)[C@H](C)CN([C@H](C)CO)C(=O)c2cc(NC(=O)c3ccncc3)ccc2O1	10.9	14.3
O=S(=O)(NC[C@H]1CC[C@@H]2NC[C@@H]2O1)c1ccccc1F	12.3	8.2
Cc1ccc(S(=O)(=O)Nc2ccc3c(c2)C(=O)N([C@@H](C)CO)C[C@@H](C)[C@@H](CN(C)S(=O)(=O)c2ccc(C)cc2)O3)cc1	-29.9	-11.2
C[C@@H]1CN([C@H](C)CO)C(=O)c2cc(NC(=O)C3CC3)ccc2O[C@H]1CN(C)Cc1ccncc1	3.7	4.6
Cc1ccccc1-c1cnc2c(c1)C(=O)N([C@@H](C)CO)C[C@H](C)[C@@H](CN(C)CC1CCCCC1)O2	-17.6	-11.9
CCN(C[C@@H]1N[C@@H](CO)[C@H]1c1ccc(-c2cccc(F)c2)cc1)C(=O)COC	-8.8	2.8
COc1ccc(S(=O)(=O)N[C@@H]2C=C[C@H](CC(=O)NCCc3ccccc3)O[C@@H]2CO)cc1	3.9	11.0
COc1cccc(-c2ccc3c(c2)[C@@H]2[C@@H](CCN2S(=O)(=O)c2ccccc2C)[C@@H](CO)N3)c1	-27.9	-19.6
CO[C@H]1CC[C@@H]2CCOc3ccc(C#N)cc3C(=O)N(C)C[C@@H](C)C(=O)N(C)C[C@@H]1O2	10.6	5.6
C[C@@H]1CN([C@H](C)CO)C(=O)c2cc(C#Cc3ccccn3)cnc2O[C@H]1CN(C)C(=O)CCN1CCCCC1	2.7	5.4

From PubChem BioAssay
